Vaccinia stage = Vaccinia orthopox stage-specific inhibition; 0.01% of 89,000 active; Vaccinia-infected cells, mCherry/Venus stage reporter fluorescence; stronger effect = lower value; some inactives read as strong as hits; activity change (mCherry), % (concentration not given with the values);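 active = mCherry past -33% and 40 or more points under the early reporter, replicates agreeing; inconclusive = past -33% without that gap or agreement; tested in A549 cells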;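 also: scaled between vehicle wells and reference inhibitor wells; 23 nL library stock went into each well; one replicate is shown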
Vaccinia stage Venus = recorded beside Vaccinia stage, whose call it bears; activity change (Venus), %; measured here: Venus reporter, other viral stage;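 negative = less Venus signal; first of two replicates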
* marks the source's active call; other numbers are inactive results; ? = inconclusive; . = no result given; & = joins results of further samples.

The line under a structure holds: Vaccinia stage | Vaccinia stage Venus
1. O=C(c1ccc(F)cc1)N1CCCCN2[C@H](C1)[C@H](c1ccc(-c3ccccc3)cc1)[C@@H]2CO
→ -20.9 | -22.2
2. COc1ccc2c3c([nH]c2c1)[C@@H](CO)N(C(=O)c1ccc(F)cc1)CC31CCN(C(=O)NC(C)C)CC1
→ 4.0 | 0.1
3. CC(=O)N(C)C[C@H]1Oc2ncc(-c3ccccc3C)cc2C(=O)N([C@H](C)CO)C[C@H]1C
→ -1.2 | -5.0
4. C[C@H](O)C#Cc1ccc([C@@H]2[C@@H](CO)N3CCCCN(C(=O)c4ccncc4)C[C@@H]23)cc1
→ 26.0 | 17.9
5. COc1ccc(NC(=O)N(C)C[C@@H]2OCCCC[C@H](C)Oc3ccc(NC(=O)Nc4ccc(C(F)(F)F)cc4)cc3C(=O)N([C@@H](C)CO)C[C@H]2C)cc1
→ 9.1 | 15.3
6. Cc1ccc(S(=O)(=O)Nc2ccc3c(c2)C(=O)N([C@H](C)CO)C[C@H](C)[C@H](CN(C)S(=O)(=O)c2cccs2)OCCCC[C@@H](C)O3)cc1
→ 2.7 | -4.7
7. CN(C)C(=O)c1ccc(-c2ccc([C@@H]3[C@H](CO)N4CCCCN(CC5CCOCC5)C[C@@H]34)cc2)cc1
→ 13.1 | 1.7
8. O=C(C[C@H]1C[C@@H]2c3cc(NC(=O)C4CCOCC4)ccc3O[C@@H]2[C@@H](CO)O1)NCc1ccccn1
→ 4.5 | -0.3
9. O=C(NCC[C@@H]1CC[C@H](NS(=O)(=O)c2ccccc2)[C@@H](CO)O1)c1ccccc1F
→ -6.4 | -7.0
10. C[C@@H]1CN([C@@H](C)CO)C(=O)c2cc(C#CC3CCCCC3)cnc2O[C@@H]1CN(C)S(=O)(=O)c1cccc(F)c1
→ ? | .
11. Cc1ccccc1-c1ccc([C@@H]2[C@H]3CN(C(=O)Nc4ccccc4)CCCCN3[C@H]2CO)cc1
→ ? | .
12. COc1cccc(C(=O)Nc2ccc3c(c2)OC[C@@H](C)N(CCc2ccccc2)C[C@H](C)[C@H](OC)CN(C)C3=O)c1
→ ? | .
13. O=C(C1=C[C@H](c2ccccc2)C[C@H](OCc2ccc(CO)cc2)O1)N1CCN(Cc2ccccc2)CC1
→ -11.4 | -8.5
14. C[C@@H]1CN([C@H](C)CO)C(=O)c2cc(NS(C)(=O)=O)ccc2O[C@@H](C)CCCCO[C@H]1CN(C)S(=O)(=O)c1ccc(Cl)cc1
→ -3.0 | -0.7
15. Cc1noc(C)c1S(=O)(=O)Nc1ccc2c(c1)C(=O)N([C@@H](C)CO)C[C@H](C)[C@H](CN(C)C(=O)Nc1ccc3c(c1)OCO3)OCCCC[C@H](C)O2
→ -17.9 | -14.5
16. COc1ccc(C#Cc2ccc([C@@H]3[C@H](CO)N4C(=O)CN(C(=O)c5ccc(F)cc5)C[C@@H]34)cc2)cc1
→ ? | .
17. C[C@@H]1CN([C@H](C)CO)S(=O)(=O)c2ccc(C3=CCCCC3)cc2O[C@H]1CN(C)Cc1ccncc1
→ ? | .
18. C[C@H]1CN([C@@H](C)CO)C(=O)c2cc(NS(=O)(=O)c3cccs3)ccc2O[C@@H]1CN(C)Cc1ccccc1
→ -1.0 | -0.6
19. CCN1[C@@H]2c3ccc(-c4ccccc4F)c(=O)n3C[C@H]1[C@H](CO)[C@H]2C(=O)NCc1ccccc1
→ 1.1 | 1.9
20. Cc1noc(C)c1NC(=O)N(C)C[C@H]1Oc2ccc(NS(=O)(=O)c3ccccc3)cc2CC(=O)N([C@H](C)CO)C[C@H]1C
→ 12.0 | 5.7
21. O=C(Nc1ccc(C(F)(F)F)cc1)N[C@@H]1CC[C@H](CCNC(=O)c2ccccc2F)O[C@@H]1CO
→ -19.0 | -8.8
22. CCC(=O)Nc1ccc2c(c1)OC[C@H](C)N(C(=O)Cc1cccnc1)C[C@H](C)[C@@H](OC)CN(C)C2=O
→ 10.6 | 17.4
23. C[C@@H]1CN([C@@H](C)CO)C(=O)c2cc(NC(=O)NC3CCCCC3)ccc2O[C@@H]1CN(C)S(=O)(=O)c1ccc(F)cc1
→ -3.9 | -7.4
24. C[C@H](CO)N1C[C@H](C)[C@@H](CN(C)S(=O)(=O)c2ccccc2)Oc2ccc(NC(=O)Nc3ccc(F)cc3)cc2CC1=O
→ 18.5 | 13.0
25. COc1ccc(S(=O)(=O)N(C)C[C@@H]2Oc3ncc(-c4ccncc4)cc3C(=O)N([C@H](C)CO)C[C@@H]2C)cc1
→ -1.4 | 1.9
26. Cc1ccccc1-c1ccc2c(c1)O[C@@H](CN(C)C(=O)Nc1ccc(C(F)(F)F)cc1)[C@H](C)CN([C@@H](C)CO)S2(=O)=O
→ ? | .
27. CO[C@@H]1CN(C)C(=O)c2cc(NC(=O)C3CCC3)ccc2OC[C@@H](C)N(C(=O)CN(C)C)C[C@H]1C
→ 7.3 | 7.4
28. Cc1ccc(S(=O)(=O)Nc2ccc3c(c2)C(=O)N([C@@H](C)CO)C[C@@H](C)[C@@H](CN(C)S(=O)(=O)c2ccc(Cl)cc2)O3)cc1
→ ? | .
29. C[C@H](CO)N1C[C@H](C)[C@@H](CN(C)Cc2ccc(-c3ccccc3)cc2)Oc2ccc(NC(=O)Nc3ccc(F)cc3)cc2C1=O
→ -29.4 | -23.1
30. C[C@@H]1CN([C@H](C)CO)C(=O)c2cccc(NS(=O)(=O)c3cccs3)c2O[C@H]1CN(C)Cc1ccc(Cl)c(Cl)c1
→ 13.5 | -5.6
31. O=C(CC1CC1)Nc1ccc2c(c1)[C@@H]1C[C@H](CC(=O)NC3CCCC3)O[C@H](CO)[C@@H]1O2
→ 1.4 | 2.5
32. CC(C)NC(=O)N(C)C[C@@H]1Oc2ccc(NS(=O)(=O)c3ccc(Cl)cc3)cc2C(=O)N([C@@H](C)CO)C[C@H]1C
→ 8.0 | 7.9
33. CC(=O)N(C)C[C@@H]1Oc2ncc(-c3cccc(C#N)c3)cc2C(=O)N([C@H](C)CO)C[C@H]1C
→ 13.7 | -1.1
34. C[C@H](CO)N1C[C@H](C)[C@@H](CN(C)Cc2ccc(C(=O)Nc3ccccc3N)cc2)Oc2ccc(NS(=O)(=O)c3cccs3)cc2CC1=O
→ 10.3 | 4.0
35. C[C@H]1CN([C@@H](C)CO)C(=O)c2cccc(NC(=O)C3CCCCC3)c2O[C@@H]1CN(C)S(=O)(=O)c1ccc(F)cc1
→ -9.0 | -2.5
36. O=C(C[C@H]1C[C@H]2c3cc(NC(=O)c4cccnc4)ccc3O[C@H]2[C@H](CO)O1)NCC1CC1
→ 6.1 | 6.0
37. CCN1[C@@H]2Cn3c(ccc(C4=CCCCC4)c3=O)[C@H]1[C@@H](C(=O)N1CCOCC1)[C@@H]2CO
→ 6.4 | -0.6
38. CC(C)NC(=O)Nc1cccc2c1O[C@H](CN(C)Cc1ccncc1)[C@@H](C)CN([C@H](C)CO)C2=O
→ 7.5 | 8.1
39. COc1ccc(S(=O)(=O)N(C)C[C@@H]2Oc3ccc(NC(=O)c4ccncc4)cc3C(=O)N([C@H](C)CO)C[C@@H]2C)cc1
→ 7.8 | 4.3
40. C[C@H]1CN([C@@H](C)CO)C(=O)c2cccc(NC(=O)Nc3ccc(F)cc3)c2O[C@H]1CN(C)CC1CCCCC1
→ -30.1 | -23.2

An excerpt from above in order of molar mass, rising.
The line under a structure holds: Vaccinia stage | Vaccinia stage Venus
4. C[C@H](O)C#Cc1ccc([C@@H]2[C@@H](CO)N3CCCCN(C(=O)c4ccncc4)C[C@@H]23)cc1
→ 26.0 | 17.9
33. CC(=O)N(C)C[C@@H]1Oc2ncc(-c3cccc(C#N)c3)cc2C(=O)N([C@H](C)CO)C[C@H]1C
→ 13.7 | -1.1
11. Cc1ccccc1-c1ccc([C@@H]2[C@H]3CN(C(=O)Nc4ccccc4)CCCCN3[C@H]2CO)cc1
→ ? | .
34. C[C@H](CO)N1C[C@H](C)[C@@H](CN(C)Cc2ccc(C(=O)Nc3ccccc3N)cc2)Oc2ccc(NS(=O)(=O)c3cccs3)cc2CC1=O
→ 10.3 | 4.0

Later entries.
The line under a structure holds: Vaccinia stage | Vaccinia stage Venus
41. COc1ccc(NC(=O)N(C)C[C@@H]2Oc3ccc(NS(=O)(=O)c4ccc(Cl)cc4)cc3C(=O)N([C@H](C)CO)C[C@@H]2C)cc1
→ 6.6 | -0.9
42. O=S(=O)(c1ccccc1)N1C[C@@H]2[C@H](c3ccccc31)[C@@H](CO)N2Cc1ccccc1
→ -5.8 | -10.6
43. C[C@@H]1CN([C@H](C)CO)C(=O)c2cc(NC(=O)CCN3CCOCC3)ccc2O[C@@H]1CN(C)Cc1ccc(Oc2ccccc2)cc1
→ -22.0 | -18.2
44. COc1ccc(S(=O)(=O)Nc2ccc3c(c2)C(=O)N([C@@H](C)CO)C[C@@H](C)[C@@H](CN(C)Cc2ccncc2)OCCCC[C@@H](C)O3)cc1
→ 6.0 | 1.0
45. CNC[C@@H]1Oc2ccc(NS(=O)(=O)c3ccc(Cl)cc3)cc2CC(=O)N([C@H](C)CO)C[C@H]1C
→ 7.8 | -5.4
46. CN1C(=O)c2cc(NC(=O)c3cccc(F)c3)ccc2OC[C@@H]2O[C@@H](CC(=O)N3CCc4ccccc4C3)CC[C@@H]21
→ ? | .
47. CO[C@@H]1CN(C)C(=O)c2ccc(NS(C)(=O)=O)cc2OC[C@H](C)N(C(=O)NC(C)C)C[C@@H]1C
→ 0.2 | -2.0
48. CO[C@H]1CN(C)C(=O)c2ccc(NC(=O)c3ccc(F)cc3)cc2OC[C@@H](C)N(C(=O)c2ccc(F)cc2)C[C@@H]1C
→ -5.7 | 1.7
49. O=C(C[C@@H]1CC[C@@H]2[C@H](COC[C@H](O)CN2Cc2ccncc2)O1)NCC1CC1
→ 7.4 | 7.8
50. O=C(C[C@H]1CC[C@H]2[C@@H](COC[C@@H](O)CN2Cc2nccs2)O1)NCc1ccccc1
→ 6.8 | 10.2
51. COc1ccc(-c2cnc3c(c2)C(=O)N([C@H](C)CO)C[C@H](C)[C@H](CN(C)S(C)(=O)=O)O3)cc1
→ 13.7&17.0 | 17.1&8.2
52. CN(C)C(=O)c1cccc(-c2ccc3n(c2=O)C[C@@H]2[C@@H](CO)[C@H](C(=O)NCC4CC4)N[C@H]32)c1
→ -5.8 | -1.8
53. CO[C@@H]1CN(C)C(=O)c2cc(NC(=O)Nc3ccccc3F)ccc2OC[C@@H](C)N(C(=O)Nc2ccccc2F)C[C@H]1C
→ -20.9 | -20.4
54. O=S(=O)(Cc1ccccc1)N1CCCCN2[C@H](CO)[C@H](c3ccc(C#Cc4ccccc4)cc3)[C@H]2C1
→ -34.5 | -34.1
55. CCC(=O)N(C)C[C@H]1Oc2ncc(C#CC(C)C)cc2C(=O)N([C@@H](C)CO)C[C@H]1C
→ 6.3 | 3.7
56. O=C(c1ccccc1)N1CC(=O)N2[C@H](C1)[C@@H](c1ccc(C#CC3CC3)cc1)[C@@H]2CO
→ 7.8 | -16.4
57. COc1ccc(NC(=O)Nc2ccc3c(c2)C(=O)N([C@@H](C)CO)C[C@@H](C)[C@@H](CN(C)Cc2ccncc2)O3)cc1
→ -4.7 | -3.3
58. C=CCNC(=O)[C@H]1[C@@H]2C(=O)O[C@@H](c3ccccc3)[C@@H](c3ccccc3)N2[C@@H](c2ccc(O)cc2)[C@]12C(=O)Nc1ccc(C#Cc3ccc(OC)cc3)cc12
→ -26.7 | -15.3
59. C[C@H]1CCCCO[C@H](CN(C)S(=O)(=O)c2ccc(F)cc2)[C@@H](C)CN([C@@H](C)CO)C(=O)c2cc(NC(=O)Nc3ccc4c(c3)OCO4)ccc2O1
→ -7.5 | -11.3
60. COc1ccc(CN(C)C[C@H]2OCCCC[C@H](C)Oc3ccc(NC(=O)c4ccncc4)cc3C(=O)N([C@H](C)CO)C[C@@H]2C)cc1
→ -0.9 | 8.0
61. C[C@@H]1CN([C@H](C)CO)C(=O)CCCn2nncc2CO[C@H]1CN(C)C(=O)Nc1ccccc1C(F)(F)F
→ 13.1 | 10.1
62. CN(C)CC(=O)Nc1ccc2c(c1)[C@H]1C[C@@H](CC(=O)NCc3ccc(Cl)cc3)O[C@@H](CO)[C@H]1O2
→ -3.0 | -3.4
63. C/C=C/c1ccc([C@@H]2[C@@H](CO)N(c3nc(CC)cs3)[C@H]2C#N)cc1
→ -18.0 | -16.1
64. C[C@@H]1CN([C@H](C)CO)C(=O)c2cc(NC(=O)Nc3ccc(F)cc3)ccc2O[C@H]1CN(C)C
→ 8.3 | 3.1
65. CCCN(C)C[C@H]1Oc2cc(C#CC3(O)CCCC3)ccc2S(=O)(=O)N([C@@H](C)CO)C[C@H]1C
→ -12.4 | -10.8
66. C[C@H]1CN([C@@H](C)CO)S(=O)(=O)c2ccc(C#CC3CC3)cc2O[C@@H]1CN(C)Cc1ccccc1F
→ ? | .
67. O=S(=O)(NC[C@H]1N[C@H](CO)[C@H]1c1ccccc1)c1ccccc1
→ 3.3 | 8.0
68. C[C@H](CO)N1C[C@H](C)[C@@H](CN(C)CC2CC2)OCc2ccccc2-c2ccccc2C1=O
→ 13.3 | 4.1
69. N#C[C@H]1[C@@H](c2ccc(C#CC3CCCC3)cc2)[C@@H](CO)N1S(=O)(=O)c1ccccc1
→ -12.6 | -3.4
70. C[C@@H]1CN([C@@H](C)CO)C(=O)c2cccc(NS(=O)(=O)c3cccs3)c2O[C@H]1CN(C)Cc1ccc(C(=O)O)cc1
→ 13.0 | 8.9
71. C[C@@H]1CCCCO[C@@H](CN(C)C(=O)Nc2ccc(C(F)(F)F)cc2)[C@H](C)CN([C@@H](C)CO)C(=O)c2cc(NS(=O)(=O)c3ccc(Cl)cc3)ccc2O1
→ -7.8 | 4.7

Two entries drawn at random from the list so far, as already listed:
The line under a structure holds: Vaccinia stage | Vaccinia stage Venus
58. C=CCNC(=O)[C@H]1[C@@H]2C(=O)O[C@@H](c3ccccc3)[C@@H](c3ccccc3)N2[C@@H](c2ccc(O)cc2)[C@]12C(=O)Nc1ccc(C#Cc3ccc(OC)cc3)cc12
→ -26.7 | -15.3
45. CNC[C@@H]1Oc2ccc(NS(=O)(=O)c3ccc(Cl)cc3)cc2CC(=O)N([C@H](C)CO)C[C@H]1C
→ 7.8 | -5.4

Screens from PubChem.

This is a subset. The share of hits here may be higher or lower than overall.
